# Screening data (PubChem)
# p53 HeLa – p53 stabilisation in HPV-positive human cells, imaging, p53-positive nuclei imaging, 24 h, 48 h (AID 1508601) | p53-positive nuclei imaging, 48 h; active compounds read high; some inactives read as strong as hits | p53-positive nuclei, normalised, % at 11 µM unless noted | 5,700 tested, 1% active;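 active = mean of two plates above 50% at 24 h or at 48 h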;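 note: HPV-positive HeLa cells with a fluorescent p53 stability reporter; 0% = vehicle and 100% = proteasome inhibitor control; doses worked out from stocks diluted about 900-fold with the highest of each compound shown; many of its hits are not listed in these tables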
# p53 HeLa cells 24 h – also measured in p53 HeLa; calls as there; nuclei count, normalised, %; measured here: cell number at 24 h;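 100% = vehicle wells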
# p53 HeLa p53 24 h – also measured in p53 HeLa; calls as there; p53-positive nuclei, normalised, %; measured here: p53 positive nuclei at 24 h;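 0% = vehicle and 100% = positive control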
# p53 HeLa cells 48 h – further read-out of p53 HeLa, marked with its call; nuclei count, normalised, %; measured here: cell number at 48 h;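 100% = vehicle wells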
# * hit, by the source's call; [ ] = remark or other dose.
SMILES,p53 HeLa,p53 HeLa cells 24 h,p53 HeLa p53 24 h,p53 HeLa cells 48 h
CN1CCC(c2c[nH]c3ccc(O)cc23)CC1,-0.2,111,-0.2,117
Cc1ccc(C23CNCC2C3)cc1 (stereo unspecified),0.2,95,-0.1,99
C=CC[C@@]1(O)CC[C@H]2[C@@H]3CCC4=CC(=O)CCC4=C3C=C[C@@]21C,-0.2[3.7 µM],118,-0.3,109
O=c1ccc2cc(OC3OC(CO)C(O)C(O)C3O)c(O)cc2o1 (stereo unspecified),0.0[3.7 µM],117,-0.3,111
C[C@]12CCC(=O)C(O)=C1CC[C@@H]1[C@H]2CC[C@]2(C)C(=O)CC[C@H]12,0.2,88,0.0,92
Nc1nc(N)nc(NC2CC2)n1,-0.1[3.7 µM],106,-0.2,106
O=C(O)c1nn(Cc2ccc(Cl)cc2Cl)c2ccccc12,0.0,115,0.2,112
CP(=O)(O)CCC(N)C(=O)O (stereo unspecified),0.0,102,-0.2,101
CS(=O)(=O)c1ccc(C(=O)C2C(=O)CCCC2=O)c(Cl)c1,-0.2,117,-0.1,112
NC(CCl)C(=O)O (stereo unspecified),0.4,79,0.0,85
C=C[C@H]1CN2CCC1C[C@H]2C(O)c1ccnc2ccccc12 (stereo partly specified),0.0[3.7 µM],111,-0.1,103
CC1=C(O)C(=O)C=C2C1=CC=C1[C@@]2(C)CC[C@@]2(C)C3C[C@](C)(C(=O)O)CC[C@]3(C)CC[C@]12C (stereo partly specified),27,48,29,32
N#CC(C#N)=NNc1ccc(OC(F)(F)F)cc1,0.3,74,0.8,93
N#CC(OC1OC(COC2OC(CO)C(O)C(O)C2O)C(O)C(O)C1O)c1ccccc1 (stereo unspecified),0.1[3.7 µM],95,0.0,89
O=C1CC[C@@]2(O)C3Cc4ccc(O)c5c4[C@@]2(CCN3CC2CC2)C1O5 (stereo partly specified),0.2[3.7 µM],88,0.3,89
COc1ccc2c3c([nH]c2c1)C(C=C(C)C)N1C(=O)[C@H]2CCCN2C(=O)[C@@H]1C3 (stereo partly specified),-0.1,121,-0.1,120
Oc1ccc(Cl)cc1Cl,0.0,111,0.1,111
OC1CN2CCC(O)[C@H]2C(O)C1O (stereo partly specified),-0.1,105,0.1,104
CCN1CCN(C(=O)Cc2ccc(Nc3ncc(F)c(Nc4ccc(C(=O)Nc5ccccc5Cl)cc4)n3)cc2)CC1,0.5,60,0.5,35
Cn1cc(C2=C(c3cn(C4CCN(Cc5ccccn5)CC4)c4ccccc34)C(=O)NC2=O)c2ccccc21,5.1,98,3.7,85
CN1CCN(c2nc3ccccc3nc2Cl)CC1,-0.3[3.7 µM],111,-0.5,108
CCOc1ccccc1C(=O)Nc1ccc(Cl)c(C(F)(F)F)c1,0.8,96,2.4,93
CN1c2ccccc2C(NCCCCCCC(=O)O)c2ccc(Cl)cc2S1(=O)=O (stereo unspecified),-0.3[3.7 µM],113,-0.5,108
Cc1ccccc1-n1c(Cn2cnc3c(N)ncnc32)nc2cccc(C)c2c1=O,0.0,120,0.0,118
C[C@]12CCC(O)C[C@@H]1CC[C@@H]1[C@H]2CC[C@]2(C)C(=O)CC[C@@H]12 (stereo partly specified),-0.4[3.7 µM],96,-0.5,99

# Some of the entries above in a different format.
CCN1CCN(C(=O)Cc2ccc(Nc3ncc(F)c(Nc4ccc(C(=O)Nc5ccccc5Cl)cc4)n3)cc2)CC1
  p53 HeLa: 0.5
  p53 HeLa cells 24 h: 60
  p53 HeLa p53 24 h: 0.5
  p53 HeLa cells 48 h: 35
CS(=O)(=O)c1ccc(C(=O)C2C(=O)CCCC2=O)c(Cl)c1
  p53 HeLa: -0.2
  p53 HeLa cells 24 h: 117
  p53 HeLa p53 24 h: -0.1
  p53 HeLa cells 48 h: 112

# More structures:
SMILES,p53 HeLa,p53 HeLa cells 24 h,p53 HeLa p53 24 h,p53 HeLa cells 48 h
CCCCCCCCCCCCCCCC[n+]1ccccc1,-0.2[3.7 µM],100,-0.2,95
COc1nc(C)nc(NC(=O)NS(=O)(=O)c2ccccc2Cl)n1,-0.2,108,-0.2,103
c1ccc2c(c1)[I+]c1ccccc1-2,0.6,45,1.0,34
CC(=Cc1csc(C)n1)C1CC2O[C@]2(C)CCCC(C)C(O)C(C)C(=O)C(C)(C)C(O)CC(=O)O1 (stereo partly specified),0.2[3.7 µM],44,-0.3,35
CC(NC(C)(C)C)C(=O)c1cccc(Cl)c1 (stereo unspecified),0.0[3.7 µM],109,-0.2,105
[N-]=[N+]=[N-],0.0,118,0.0,107
CCC1=C[C@@H]2CN3CCc4c([nH]c5ccccc45)[C@@](C(=O)OC)(C2)[C@@H]13,0.0[3.7 µM],75,-0.2,74
CCCOc1ccc2[nH]cc(C3=CCNCC3)c2n1,-0.2,85,-0.1,91
CC(=O)O[C@@]12CO[C@@H]1CC(O)[C@@]1(C)C(=O)C(O)C3=C(C)C(O)C[C@@](O)(C(OC(=O)c4ccccc4)[C@H]21)C3(C)C (stereo partly specified),1.2[3.7 µM],105,0.2,106
O=[N+]([O-])c1ncc[nH]1,0.0[3.7 µM],111,-0.2,108
Cc1cc(SCc2sc(-c3ccc(C(F)(F)F)c(F)c3)nc2C)ccc1OCC(=O)O,-0.2[3.7 µM],109,-0.4,105
O=C(O)CCC(CP(=O)(O)O)C(=O)O (stereo unspecified),0.0,106,0.1,101
CCOC(=O)c1c(C(C#N)=CN)c2ccc(Cl)c(Cl)c2n1C,-0.2,109,0.0,108

# Of the compounds above, these have a Cl atom.
SMILES,p53 HeLa,p53 HeLa cells 24 h,p53 HeLa p53 24 h,p53 HeLa cells 48 h
O=C(O)c1nn(Cc2ccc(Cl)cc2Cl)c2ccccc12,0.0,115,0.2,112
CS(=O)(=O)c1ccc(C(=O)C2C(=O)CCCC2=O)c(Cl)c1,-0.2,117,-0.1,112
NC(CCl)C(=O)O (stereo unspecified),0.4,79,0.0,85
Oc1ccc(Cl)cc1Cl,0.0,111,0.1,111
CCN1CCN(C(=O)Cc2ccc(Nc3ncc(F)c(Nc4ccc(C(=O)Nc5ccccc5Cl)cc4)n3)cc2)CC1,0.5,60,0.5,35
CN1CCN(c2nc3ccccc3nc2Cl)CC1,-0.3[3.7 µM],111,-0.5,108
CCOc1ccccc1C(=O)Nc1ccc(Cl)c(C(F)(F)F)c1,0.8,96,2.4,93
CN1c2ccccc2C(NCCCCCCC(=O)O)c2ccc(Cl)cc2S1(=O)=O (stereo unspecified),-0.3[3.7 µM],113,-0.5,108
COc1nc(C)nc(NC(=O)NS(=O)(=O)c2ccccc2Cl)n1,-0.2,108,-0.2,103
CC(NC(C)(C)C)C(=O)c1cccc(Cl)c1 (stereo unspecified),0.0[3.7 µM],109,-0.2,105
CCOC(=O)c1c(C(C#N)=CN)c2ccc(Cl)c(Cl)c2n1C,-0.2,109,0.0,108

# An excerpt, so the mix of outcomes need not match the whole.
